# SARS PLpro yeast – inhibitors of SARS-CoV papain-like protease in yeast. S. cerevisiae expressing SARS-CoV PLpro, growth rescue; control for the full effect not named in the record. Potency, µM (titrated, usually from 32.9 µM), for the others: at the top dose activity, positive = growth rescue. actives 0.19% (n = 330,000); active means well fitted rising curve with a large enough effect; inconclusive means small, poorly fitted or top-dose-only effect; inactive means no such curve, though single readings can be large or run the other way; note: 0% is about no effect; nearly all actives have a fitted effect of over 55% in size; growth read by luminescence after 48 h
# NS1 function inh – inhibitors of influenza NS1 protein function; S. cerevisiae slowed by influenza A NS1, growth recovery by OD600; Potency, µM (doses to about 46.1 µM), inactives show top-dose activity, positive = more growth; actives 0.4% (n = 270,000); active means well fitted rising curve with a large enough effect; inconclusive means small, poorly fitted or top-dose-only effect; inactive means no such curve, though single readings can be large or run the other way; note: nearly all actives have a fitted effect of over 50% in size
#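 Compounds were scored for reversing the slow growth caused by influenza A NS1 in S. cerevisiae, measured by optical density at 600 nm. Assay medium contained 2% galactose at pH 6.0; NS1-free yeast of the same strain were the positive control.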
# LASV entry inh – Lassa virus entry inhibition; Potency, µM (doses to about 37.9 µM), without a hit: at the highest dose activity change, negative = inhibition, usual class: inhibitors; Lassa virus pseudotype entry inhibition, cell reporter; control for the full effect not named in the record; actives 1.2% (n = 300,000); active means well fitted inhibition curve with a large enough effect; inconclusive means small, poorly fitted or top-dose-only effect, or effect the other way; inactive means flat fitted curve, though single readings scatter; tested in HEK293 cells; note: % is set by controls: 0 for no effect and ±100 for the full control effect; nearly all actives have a fitted effect of over 50% in size; luciferase read-out
# Cruzain inh Det – cruzain (T. cruzi) inhibition with detergent. actives 0.43% (n = 200,000). P25779. Potency, µM, for the others: max response, negative = inhibition, hits mostly inhibitors. purified cruzain, Z-FR-AMC fluorescence, 0.01% Triton;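 note: plate controls were neutral wells for no effect and buffer without enzyme for full effect; nearly all actives have a fitted effect of over 40% in size; top concentration of the series not given in the record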
# Target sequence (P25779 123-467 limits assumed): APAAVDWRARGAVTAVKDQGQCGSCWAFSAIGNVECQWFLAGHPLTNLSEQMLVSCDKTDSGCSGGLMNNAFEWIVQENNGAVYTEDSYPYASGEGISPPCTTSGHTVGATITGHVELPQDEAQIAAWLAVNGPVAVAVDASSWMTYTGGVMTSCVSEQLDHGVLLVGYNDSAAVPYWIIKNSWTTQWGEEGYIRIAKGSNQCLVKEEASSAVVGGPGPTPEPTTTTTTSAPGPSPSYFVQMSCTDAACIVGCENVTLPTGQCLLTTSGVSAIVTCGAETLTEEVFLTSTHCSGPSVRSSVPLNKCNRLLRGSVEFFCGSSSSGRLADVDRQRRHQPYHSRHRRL
#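 Compounds were screened in titration against cruzain (1.5 nM) with 0.01% Triton X-100 to counter colloidal aggregation. Activity was the AMC fluorescence increase over 60 s after adding 2 uM Z-FR-AMC at pH 5.5.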
# RE007 growth inh – less growth of the S. pombe RE007 Vpr strain; S. pombe RE007 Vpr strain, BacTiter-Glo ATP luminescence, 24 h; control for the full effect not named in the record; actives 0.21% (n = 360,000); Potency, µM (series often up to 92.2 µM), inactives show at the top dose activity change, negative = less growth; active = well fitted falling curve with a large enough effect; inconclusive = small, poorly fitted or top-dose-only effect; inactive = no such curve, though single readings can be large or run the other way;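 note: % is set by controls: 0 for no effect and ±100 for the full control effect; nearly all actives have a fitted effect of over 50% in size; the assay follows cell death caused by Vpr and the record does not say whether a fall means rescue or toxicity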
#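 Fission yeast strain RE007, carrying one chromosomally integrated HIV-1 vpr copy, was seeded at OD 0.01 in PMG+AL medium with 23 nL pinned compound. After 24 h at 30 °C and 99% humidity, viability was read by BacTiter-Glo luminescence.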
# Cruzain noTriton – cruzain (T. cruzi) inhibition without detergent; P25779; purified cruzain, Z-FR-AMC fluorescence, no detergent; Potency, µM, without a hit: max response, negative = inhibition, usual class: inhibitors; actives 2.3% (n = 200,000);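 note: plate controls were enzyme without inhibitor for no effect and buffer without enzyme for full effect; nearly all actives have a fitted effect of over 40% in size; top concentration of the series not given in the record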
#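 Purified cruzain at 1.5 nM, pre-incubated 15 min with compound at room temperature in 100 mM sodium acetate pH 5.5, 5 mM DTT, 0.00005% Triton X-100. Reaction started with 2 uM Z-FR-AMC; AMC fluorescence increase over 60 s gives rate.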
# Marburg entry inh – inhibitors of Marburg virus binding or cell entry; Marburg virus pseudotyped entry inhibition, cell reporter; control for the full effect not named in the record; about a third of the inactives were read at about 46 µM; Potency, µM (series often up to 37.8 µM), without a hit: top-dose activity change, negative = inhibition, actives largely listed as inhibitors; actives 1.8% (n = 300,000); active = well fitted inhibition curve with a large enough effect; inconclusive = small, poorly fitted or top-dose-only effect, or effect the other way; inactive = flat fitted curve, though single readings scatter; tested in HEK293 cells; about a fifth of its hits are not listed in these tables; note: % is set by controls: 0 for no effect and ±100 for the full control effect; luciferase read-out
# StopGo reporter – FMDV 2A StopGo reporter, luciferase signal. human cells with a luciferase reporter of 2A StopGo recoding; control for the full effect not named in the record. Potency, µM (doses to about 57.9 µM), for the others: at the highest dose signal change, negative = less light. actives 1.2% (n = 410,000); active = well fitted falling curve with a large enough effect; inconclusive = small, poorly fitted or top-dose-only effect; inactive = no such curve, though single readings can be large or run the other way; tested in HEK293T cells; note: % is set by controls: 0 for no effect and ±100 for the full control effect; nearly all actives have a fitted effect of over 45% in size; luciferase light after 4 h
# The depositor's hits bear a star; u = inconclusive; x = not tested or not shown; & = joins results of further samples; [ ] = dose if it differs, or a comment. Unless noted, calls come from the whole dose curve; as a rule, active = well fitted curve in the direction sought with a large enough effect; inconclusive = small, poorly fitted or top-dose-only effect, or another doubt; inactive = no such curve, though single readings can be large; an effect the other way counts as inactive or inconclusive. Potency is the fitted concentration of half-maximal effect. An unsorted share of the library; 4.6% or so of the library scored in one or more.
# The first six compounds, ahead of the listing:
SMILES,SARS PLpro yeast,NS1 function inh,LASV entry inh,Cruzain inh Det,RE007 growth inh,Cruzain noTriton,Marburg entry inh,StopGo reporter
Cc1ccc(C(=O)NCc2ccc(F)cc2)cc1NC(=O)c1nsc2ccccc12,x,x,u,-1.3%,x,u,x,-0.5%
CCOc1ccc(-n2nc3ccc(N)cc3n2)cc1,-10.6%,14.5%,x,x,-19.9%,x,x,u
CCOC(=O)c1c(C)n(CC(O)CN(CC)CC)c2cc(Br)c(OC)cc12 (stereo not given),2.7%,x,3.1%,x,-9.7%,x,16.1%,3.6%
CC(=O)c1cc(-c2ccccc2)n(CCC(=O)NC2CCCCC2)c1C,0.2%,2.3%,u,0.8%&-3.9%,7.1%,-7.1%&6.6%,2.4%&2.4%,-5.4%&-10.3%
CCOC(=O)c1ccccc1NC(=O)COc1cc(=O)n(CC)c2ccccc12,-10.5%,-2.2%,-2.5%[46.1 µM],0.6%&-5.1%,12.0%,u,3.4%[46.1 µM],u
N/C(CSc1ccccn1)=N\OCc1c(Cl)cccc1Cl,0.4%,2.6%,-20.4%[46.1 µM],x,2.1%,x,u,24.7%

# Results, from the first entry:
SMILES,SARS PLpro yeast,NS1 function inh,LASV entry inh,Cruzain inh Det,RE007 growth inh,Cruzain noTriton,Marburg entry inh,StopGo reporter
Cc1ccc(C(=O)NCc2ccc(F)cc2)cc1NC(=O)c1nsc2ccccc12,x,x,u,-1.3%,x,u,x,-0.5%
CCOc1ccc(-n2nc3ccc(N)cc3n2)cc1,-10.6%,14.5%,x,x,-19.9%,x,x,u
CCOC(=O)c1c(C)n(CC(O)CN(CC)CC)c2cc(Br)c(OC)cc12 (stereo not given),2.7%,x,3.1%,x,-9.7%,x,16.1%,3.6%
CC(=O)c1cc(-c2ccccc2)n(CCC(=O)NC2CCCCC2)c1C,0.2%,2.3%,u,0.8%&-3.9%,7.1%,-7.1%&6.6%,2.4%&2.4%,-5.4%&-10.3%
CCOC(=O)c1ccccc1NC(=O)COc1cc(=O)n(CC)c2ccccc12,-10.5%,-2.2%,-2.5%[46.1 µM],0.6%&-5.1%,12.0%,u,3.4%[46.1 µM],u
N/C(CSc1ccccn1)=N\OCc1c(Cl)cccc1Cl,0.4%,2.6%,-20.4%[46.1 µM],x,2.1%,x,u,24.7%
CCCc1nccn1S(=O)(=O)c1cc(Br)ccc1OC,x,x,12.9%[46.1 µM],-3.1%,x,-5.2%,x,2.3%
Cc1ccc(S(=O)(=O)c2nc(-c3cccs3)oc2SCC(=O)Nc2cc(C)cc(C)c2)cc1,x,x,-23.5%[46.1 µM],-4.6%,x,-26.6%,u,-12.7%
COc1ccccc1CNC(=O)C(=O)NCC(c1ccc2c(c1)OCO2)N1CCOCC1 (stereo not given),x,x,20.8%[46.1 µM],1.5%,x,3.7%,x,-15.3%
CCCC(=O)Nc1c2c(nn1-c1ccc(OC)cc1)CS(=O)(=O)C2,-11.7%,9.3%,2.2%,3.1%,-12.2%,2.8%,-1.1%,-0.4%
O=C1C(Cl)=C(NCCN2CCOCC2)C(=O)c2ccccc21,0.4%,-2.6%,u,x,-13.7%,x,u,-19.6%
CC(=O)Nc1ccc(Sc2ccccc2C(=O)O)cc1,2.1%,2.7%,-7.5%[46.1 µM],x,17.2%,x,7.1%[46.1 µM],-6.0%
CCCCNC(=O)c1oc2ccc(S(=O)(=O)N3CCCC3)cc2c1C,-3.1%,-2.8%,-19.4%,x,13.5%,x,-29.2%[46.1 µM],-28.5%
O=C(COC(=O)/C=C/c1cccc(F)c1)Nc1cccc(S(=O)(=O)NC2=NCCCCC2)c1,2.8%,x,7.5%,x,4.2%,x,1.6%[46.1 µM],-15.5%
CC(=O)c1ccc(NC(=O)CCNC(=O)c2ccc(Cl)cc2)cc1,0.7%,-1.1%,x,x,-13.2%,x,x,17.3%
Cc1ccc(-n2ncc3c(NCCC4=CCCCC4)ncnc32)cc1,x,x,u,1.3%,x,-16.5%,x,23.0%
CCOC(=O)c1cc2sc(C)cc2n1CC(=O)NCc1ccc(F)cc1,3.0%,-12.7%,-4.6%,-0.5%,11.1%,11.2%,-26.4%,x
CC(=O)N1CCc2cc(Br)cc(S(=O)(=O)NCCCN3CCC(C)CC3)c21,1.3%,5.3%,-8.6%,5.4%,9.2%,-0.1%,-12.1%[46.1 µM],21.5%
COc1cccc(C(=O)C2CCCN(Cc3cccc(OCCO)c3)C2)c1 (stereo not given),-1.3%,-4.0%,15.7%[46.1 µM],x,-8.3%,x,-3.2%[46.1 µM],-20.6%
S=C1NNC2(CC3CC2C2CCCC32)NN1 (stereo not given),0.9%,x,u,x,4.4%,x,19.8%,12.4%
c1ccc(CSc2ccc3nnc(-c4cccnc4)n3n2)cc1,16.1%,-1.3%,-7.5%,-1.9%,-26.0%,-6.8%,8.3%,-22.4%
O=C(OCC(O)C(O)C(O)C(SCc1ccccc1)SCc1ccccc1)c1ccccc1 (stereo not given),x,x,u,x,-4.6%,x,u,-19.6%
O=C(OCc1nc2ccsc2c(=O)[nH]1)c1ccccc1,-1.5%,x,17.6%,x,42.4%,x,1.8%[46.1 µM],-3.9%
C(=N\Nc1nc2ccccc2[nH]1)/c1cccs1,-1.8%,-99.0%,18.1%,-27.0%,6.6%,u,u,70.8%[activator]
O=C(O)c1ccc(NC(=S)N2CCCCC2)cc1,-0.3%,0.8%,11.8%,x,21.0%,x,u,32.8%[activator]
CCOC(=O)C1CCCN(C/C=C/c2ccccc2[N+](=O)[O-])C1 (stereo not given),7.6%,-9.3%,-35.3%[14.3 µM],4.3%,-9.1%,0.0%,13.0%,-9.8%
O=c1c2ccccc2nc(SCc2nc3ccccc3s2)n1CCCO,15.9%,9.3%,u,-11.0%,2.8%,u,u,-33.6%
O=S1(=O)Nc2c(ccc3cccnc23)-c2ccccc21,-40.4%,-193.8%,u,0.2%,u,0.2%,u,x
COCCN1CCn2c(nc3cc(Nc4nnc(C)c5ccccc45)ccc32)C1,-1.9%,-56.7%,x,x,-9.9%,x,x,-5.8%
CS(=O)(=O)N1N=C(c2ccco2)CC1c1ccc(Br)cc1 (stereo not given),24.3%,0.9%,u,2.5%,7.3%,5.0%,-3.0%,73.3%[activator]
COc1ccc(-c2noc(CCc3ccccc3)n2)cc1,-2.4%,-7.6%,u,x,-1.0%,x,-1.8%,30.3%[activator]
COc1ccccc1-c1nnc(SCCOc2ccccc2C)o1,x,x,19.0%[46.1 µM],-9.1%,x,u,-1.9%[46.1 µM],-12.4%
CN(C)CCNc1ncnc2oc(-c3ccccc3)c(-c3ccccc3)c12,0.2%,0.3%,x,x,-1.3%,x,x,u
Cn1cc(Br)c(-c2cccc(N3C(=O)CC(C)(C)CC3=O)c2)n1,-1.2%,4.7%,7.9%,x,-4.8%,x,-29.4%,-16.1%
Cc1ccc(NC(=S)NC(=O)c2cncc(Br)c2)cc1Cl,x,x,-24.8%,x,-1.7%,x,7.6%[46.1 µM],19.0%
CN(C)CCCN(C(=O)c1ccco1)c1nc2c(F)cc(F)cc2s1,-1.3%,x,5.2%,x,-10.7%,x,u,0.2%
CCC1CCCCN1CCCNC(=O)c1ccc2c(c1)N(Cc1cccc(Cl)c1)C(=O)c1ccccc1S2(=O)=O (stereo not given),x,x,u,1.7%,x,-4.8%,x,-13.0%
O=C(CSC(=S)N1CCCC1)Nc1ccc(Br)cc1Cl,-2.3%,x,7.3%,x,u,x,u,-11.2%
COc1ncccc1C(=O)N1CCCC(C(=O)c2cc(F)ccc2F)C1 (stereo not given),0.3%,2.3%,-6.2%,x,13.4%,x,12.5%,u
N#Cc1ccccc1Sc1ccccc1C(=O)OCC(=O)NC12CC3CC(CC(C3)C1)C2,4.3%,29.0%,u,-3.6%,-7.2%,u,u,u
Cc1c(Cl)cccc1Nc1nc(N)nc(CN2CCCCCC2)n1,1.9%,2.0%,-1.3%,4.9%,-2.2%,-21.3%,-27.5%,-1.4%
CC(SC1CCCC1)C(=O)NC(C)(C#N)C(C)C (stereo not given),4.6%,-1.2%,11.1%,1.7%,24.3%,10.2%,-6.7%,-8.1%
C=Cn1cc[n+](CC(=O)c2ccc(-c3ccccc3)cc2)c1,-2.0%,-9.5%,-24.1%[46.1 µM],x,-12.2%,x,12.4%[46.1 µM],-21.5%
O=C(Cc1nnc(NC(=O)c2ccccc2)s1)N/N=C\c1ccc(O)c(O)c1,-2.3%,25.3%,x,x,4.8%,x,x,10.7%
COc1ccc(C=O)cc1OS(=O)(=O)c1ccc(NC(C)=O)cc1,4.2%,8.4%,u,-3.0%,17.3%,0.8%,-27.4%[46.1 µM],-26.3%
c1ccc(Nc2c3c(nc4ncnn24)CCC3)cc1,3.2%,-7.3%,-15.7%,0.3%,-1.8%,3.2%,2.8%,-18.0%
Cc1cc(C)cc(NC(=O)CCC(=O)Nc2nnc(C(C)C)s2)c1,-4.3%,-1.3%,7.1%[46.1 µM],x,8.6%,x,9.2%[46.1 µM],11.9%
N#CC(C#N)=C1C=C2C=C(N3CCOCC3)CCC2CC1 (stereo not given),-1.3%,x,16.0%,x,-2.5%,x,-12.7%[46.1 µM],-7.7%
COC(=O)[C@@H](N)CCCN=C(N)N[N+](=O)[O-],-0.3%,3.2%,2.1%,-1.0%,5.8%[18.4 µM],-0.7%,-4.8%&-4.8%&-4.8%&-4.8%&-4.8%&-4.8%&-4.8%&-17.1%&-4.8%,-9.4%&-22.8%
CN(C)CP(=O)(Nc1ccccc1)N(C)C (stereo not given),1.7%,0.9%,5.5%,1.3%,6.2%,-6.3%,28.7%,0.8%
O=C(CCNS(=O)(=O)c1cccc2nsnc12)NCCc1ccccc1,-2.3%,3.0%,-18.6%,2.3%,-19.8%,1.0%,u,-10.7%
CCN(CC)Cc1cc(NC2=NS(=O)(=O)c3ccccc32)ccc1OC(=O)c1ccccc1,3.5%,0.7%,-2.3%,-3.0%,-25.4%,-10.2%,-2.4%,-1.7%

# High-throughput results (PubChem)
